Bioassay records (PubChem BioAssay)
CBX7 inh = CBX7 chromodomain binding inhibitors, primary screen, biochemical, AlphaScreen | Chromobox protein homolog 7 (Homo sapiens), O95931 | AlphaScreen His6-CBX7 / biotin-H3K27me3 peptide binding; hits give low values | normalised signal (fraction of DMSO) (no concentration beside the values) | hit rate 1.1% among 66,000 | AID 1224903, 2016; in the data active = normalised signal below about 0.5;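 note: 100 nL library stock added to about 20 µL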
Target sequence (O95931 whole entry, looked up): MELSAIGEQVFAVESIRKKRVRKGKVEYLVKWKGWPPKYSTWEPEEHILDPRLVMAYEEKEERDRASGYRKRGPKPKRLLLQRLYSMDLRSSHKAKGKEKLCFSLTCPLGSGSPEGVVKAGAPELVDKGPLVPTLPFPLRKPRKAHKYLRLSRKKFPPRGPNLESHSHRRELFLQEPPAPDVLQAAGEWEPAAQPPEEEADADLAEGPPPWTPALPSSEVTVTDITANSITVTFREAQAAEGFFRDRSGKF
CBX7 inh z-score = recorded beside CBX7 inh, whose call it bears; z-score; measured here: z-score of CBX7 signal; some inactives read as strong as hits; reference of the scale not given here;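 same signal on another scale; lower means less binding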
Active calls of the source: *; & = joins results of further samples. Not all compounds are listed (hit frequency here may not be typical).

SMILES | CBX7 inh | CBX7 inh z-score
Cc1ccc2c(c1)-c1c(cnn1CC(=O)NC1CCCCC1)CO2 | 0.98 | -0.53
COc1cc(NS(=O)(=O)c2ccc(NC(=O)c3cccc(C)c3)cc2)nc(OC)n1 | 1.3 | 2.5
Cc1ccc(N2CCN(C(=O)C3(S(=O)(=O)c4ccc(Cl)cc4)CC3)CC2C)cc1 (configuration not stated) | 1 | 0.1
CCOC(=O)C1CCCN(c2c(N3CCN(c4ccccc4OC)CC3)c(=O)c2=O)C1 (configuration not stated) | 1 | 0.25
Cc1ccc2nc3c(C#N)c(C)cc(N4CCCCC4)n3c2c1 | 1.2 | 4.7
Cc1cc(C)n2cc(CSc3nncn3-c3ccccc3)nc2n1 | 1 | 0.92
O=C(CCCn1c(=O)[nH]c2ccsc2c1=O)NC1CCN(Cc2ccccc2)CC1 | 1 | 0.13
Cc1cc(C)nc(SCc2cnc(-c3ccccc3)o2)n1 | 1.1 | 2.2
CCOC(=O)Cc1nnc2c(N(CC)c3ccccc3)nc3nonc3n12 | 1 | 0.071
Cc1onc(-c2ccccc2Cl)c1C(=O)N1CCN(Cc2ccc3c(c2)OCO3)CC1 | 0.87 | -1.8
Cc1nc2ccc(S(=O)(=O)N(C)CC(=O)Nc3cccnc3)cc2s1 | 1.2 | 1.1
Cc1ccc(CCN2C(=O)CCC2(C)C(=O)NC2CCC(C)CC2)cc1 (configuration not stated) | 0.53 | -17
CCOc1ccccc1C1CC(=O)Nc2cc3c(cc21)OCO3 (configuration not stated) | 0.87 | -3.9
CCOc1ccccc1N1C(=O)C2C3c4ccccc4C(C)(c4ccccc43)C2C1=O (configuration not stated) | 0.74 | -3
CCCCC(C(=O)Nc1ccccc1)N1C(=O)c2ccccc2C1=O (configuration not stated) | 1 | 0.066
O=C(CSCc1cnn(-c2ccccc2)c1-n1cccc1)N1CCCC1 | 1 | 0.61
O=C(Nc1nnc(Cc2ccc(Cl)cc2Cl)s1)c1ccccc1F | 1.1 | 1
CCOCCCNC(=O)c1ccc2c(c1)ncn2-c1ccc(F)c(F)c1 | 0.97 | -0.31
Cc1sc2ncn(CC(=O)Nc3ccc(F)cc3F)c(=O)c2c1S(=O)(=O)N1CCC(C)CC1 | 1.1 | 0.79
CCCc1cc(-c2nc(-c3cccc([N+](=O)[O-])c3)cs2)ccn1 | 0.43* | -6*
CC1(C)CC(=O)c2c(-c3ccc(F)cc3)n[nH]c2C1 | 1 | 0.1
CCN(CCCNC(=O)CN1C(=O)COc2ccccc21)c1cccc(C)c1 | 0.9 | -3.5
CC1CCN(C(=O)Cn2cc3c(n2)CCCC3)CC1 | 1 | 0.8
Cc1ccccc1CN1C(=O)C(O)(CC(=O)c2ccccn2)c2ccccc21 (configuration not stated) | 1.1 | 0.53
Cc1ccc(-c2nnc(Nc3cccc(O)c3)c3ccccc23)cc1S(=O)(=O)N1CCCCC1 | 0.54 | -8.7
CC(=O)NC1(c2nnnn2-c2cccc(Cl)c2)CCC(C)CC1 (configuration not stated) | 1.1 | 0.063
CCOc1ccccc1N1CCN(C(=O)c2c(-c3ccccc3Cl)noc2C)CC1 | 0.99 | -0.26
COCCCNc1nc(CC(=O)OC)nc2sc(C)c(C)c12 | 0.99 | -0.0058
CCc1ccc(N(C)S(=O)(=O)c2ccc3[nH]cc(C(=O)NCCOC)c(=O)c3c2)cc1 | 1.2 | 1.7
COc1ccc(NC(=O)c2cc(-c3cccc(Cl)c3)on2)cc1OC | 0.93 | -0.9
Cc1ccc(C)c2[nH]c(=O)c(CCNC(=O)c3cc4ccccc4o3)cc12 | 1 | 0.78
CCN(C(=O)Cn1nc(-c2ccc(OC)cc2)ccc1=O)c1cccc(C)c1 | 1 | 0.21
CN(C)S(=O)(=O)c1ccc(C(=O)N2CC(=O)Nc3ccc(Cl)cc3C2c2ccc(F)cc2)cc1 (configuration not stated) | 1.2 | 1.6
O=C(c1ccc2c(=O)n3c(nc2c1)CCCCC3)N1CCC(Cc2ccccc2)CC1 | 0.8 | -0.27
Nc1nonc1-c1nc2ccccc2n1Cc1c(F)cccc1Cl | 0.96 | -0.6
O=c1[nH]c2ccc(S(=O)(=O)N3CCN(c4cccc(Cl)c4)CC3)cc2[nH]c1=O | 0.87 | -3
CCC1Oc2ccc(C)cc2N(CC(=O)NCc2ccc(OC)cc2OC)C1=O (configuration not stated) | 0.98 | -0.79
O=C(CNc1ccccc1-c1nc2ccccc2[nH]c1=O)NC1CCCC1 | 0.94 | -0.99
CN1CCN(c2nc3ccccc3nc2C(F)(F)F)CC1 | 0.98 | -0.67
Cc1cccc(N2C(=O)C3CCC(C)(C2=O)C3(C)C)c1 (configuration not stated) | 0.86 | -2
COc1ccc(NC(=O)CNC(=O)Cn2ccc3ccccc3c2=O)cc1OC | 1 | 0.23
COc1ccc(OCc2nc(C#N)c(N3CCN(C)CC3)o2)cc1 | 1.1 | 0.58
FC(F)(F)c1cc(Br)c2nc(-c3ccccc3)c(-c3ccccc3)nc2c1 | 1.3 | 1.8
COc1ccc(CC(=O)Nc2ccc3nc(N4CCC(C)CC4)cc(C)c3c2)cc1OC | 0.77 | -3.8
Cc1ccc(NC(=O)C2CCN(S(=O)(=O)c3cnc[nH]3)CC2)cc1C | 0.95 | -0.64
COCc1nnc(NC(=O)c2ccc(OC)cc2OC)s1 | 0.86 | -2.5
O=C(Nc1cc(Cl)ccc1O)c1cc2nc3c(c(C(F)(F)F)n2n1)CCc1ccccc1-3 | 0.92 | -0.8
CCCCCCNC(=O)c1c[nH]c2ccc(S(=O)(=O)N(C)c3ccc(Cl)cc3)cc2c1=O | 1 | 0.37
CCOc1ccc(C2NCCc3c2[nH]c2ccccc32)cc1 (configuration not stated) | 0.72 | -2
C=CCn1c(SCC(=O)Nc2cccc(OC)c2)nnc1-c1cccnc1 | 1 | 0.81
Cc1cc(Cl)ccc1OCCCC(=O)NCc1ccncc1 | 1 | -0.043
COc1cccc(Nc2nc3ccccc3nc2-n2nc(C)cc2C)c1 | 2.5 | 30
COc1ccc(OC)c(CCNC(=O)c2ccc3nc(N4CCOCC4)sc3c2)c1 | 0.93 | -0.63
OC(c1ccccc1)(c1ccccc1)c1nc2ccccc2n1Cc1c(Cl)cccc1Cl | 1.2 | 1.8
CCN(CC)S(=O)(=O)c1ccc2oc(C(=O)Nc3cccc(C)c3C)c(C)c2c1 | 1.1 | 2.6
Cc1ccc2c(C)c(C(=O)N(Cc3ccc(C(C)C)cc3)C3CCS(=O)(=O)C3)oc2c1 (configuration not stated) | 0.73 | -2.9
Cc1cc(N2CCOCC2)nc2ccc(NC(=O)CCC(=O)N3CCOCC3)cc12 | 1 | 0.022
CCN1CCCc2cc(CN(C(=O)Nc3ccc(Cl)c(Cl)c3)C3CCCC3)ccc21 | 0.54 | -7.2
O=C1CC(c2ccccc2)C(C(=O)Nc2cccc(C(F)(F)F)c2)N1 (configuration not stated) | 0.86 | -1.6
CCC(=O)N1c2ccc(S(=O)(=O)NCCc3ccc(C)cc3)cc2CC1C (configuration not stated) | 1.1 | 0.5
Remaining list, next part:
SMILES | CBX7 inh | CBX7 inh z-score
Cc1cccc(Cc2c(C)nc3c(C(=O)NCc4ccc(F)cc4)cnn3c2C)c1 | 0.94 | -0.85
COc1cccc(-c2cc(C(F)(F)F)nc(-n3cc(Br)cn3)n2)c1 | 1.3 | 6.9
FC(F)(F)c1cccc(CSc2ncnc3ccccc23)c1 | 1.2 | 5.9
COC(=O)c1cc2ccsc2n1Cc1cc(=O)n2ccccc2n1 | 0.89 | -3.1
CC1CCCC2C(=O)N(c3cccc(C(=O)O)c3)C(=O)C12 (configuration not stated) | 1.2 | 1.8
Cc1ccc(-c2nnc(Nc3ccc4c(c3)OCO4)c3ccccc23)cc1S(=O)(=O)NCCO | 0.67 | -3.7
O=C(Cc1ccc(NC2=NC3CS(=O)(=O)CC3S2)cc1)NC1CCCCCCC1 (configuration not stated) | 1 | 1.1
O=C(Nc1ccccc1F)c1oc2ccccc2c1NC(=O)C1CCCCC1 | 1 | 0.3
COc1cccc(OC)c1C(=O)Nc1ccc(S(=O)(=O)Nc2nccc(C)n2)cc1 | 1 | 0.3
CCCCCn1c(=N)n(CC(O)COc2ccccc2)c2ccccc21 (configuration not stated) | 0.89 | -0.48
CCOCCCNC(=O)c1ccc2c(c1)N=C(CC)c1cc(C)ccc1S2 | 1 | 0.63
CCCCc1cc(CCCC)n2nc(-c3ccccc3)cc2n1 | 1.5&1.6 | 15&14
CC(=O)Oc1ccc(C(=O)Nc2ccc3nc(-c4ccccc4)oc3c2)cc1 | 1.2 | 1.8
Cc1ccc(C)c(CN2C(=O)c3ccccc3S(=O)c3ccc(C(=O)NC4CC4)cc32)c1 (configuration not stated) | 0.98 | -0.25
Cc1ccc(CNC(=O)Cn2nc(Cc3cccnc3)c3ccccc3c2=O)cc1 | 0.97 | -0.041
CCN(CC)S(=O)(=O)c1ccc(C(=O)Nc2nnc(-c3ccc(Cl)s3)o2)cc1 | 0.96 | -0.96
Cc1ccc2nsnc2c1NC(=O)c1ncn[nH]1 | 0.45* | -5.9*
CCOc1ccccc1CNC(=O)CCNC(=O)Cn1ccc2ccccc2c1=O | 1 | 0.2
O=C(NCc1cccnc1)c1cc(-c2ccc(F)cc2)on1 | 1 | 0.46
CCOC(=O)c1cc(-c2ccccc2)n(CCC(=O)Nc2ccccc2C)c1C | 1 | 0.078
Cc1cccc(-n2ccnc2SCC(=O)Nc2ccc(OC(F)(F)F)cc2)c1C | 0.94 | -0.064
CCCNC(=O)CN1C(=O)CSc2ncccc21 | 1 | -0.18
O=C(NCc1nnc(SCC(=O)N2CCOCC2)o1)c1ccccc1F | 1.1 | 2
COC(=O)c1nn(-c2ccccc2)nc1N | 1.1 | 0.6
Cc1ccc(NC(=O)CN2C(=O)c3ccccc3Sc3ccc(C(=O)N4CCCC4)cc32)c(C)c1 | 0.93 | -0.99
COc1ccc(-c2nc(Nc3ccc(F)c(Cl)c3)c3ccccc3n2)cc1OC | 1 | 0.54
CCCS(=O)(=O)N1CCC(C(=O)NCCc2ccc(Cl)cc2)CC1 | 1.1 | 2.1
O=C(CSc1nnc(-c2ccccc2)o1)N1CCCCC1 | 0.95 | -0.11
COc1ccccc1OCCOc1ccccc1-c1nc2sc3c(c2c(=O)[nH]1)CCCC3 | 0.97 | -0.54
Cc1ccc(C2CC(=O)Nc3cc4c(cc32)OCCO4)cc1Br (configuration not stated) | 0.79 | -0.28
C=C(C)Cn1c(CCNC(=O)c2ccccc2)nc2ccccc21 | 0.96 | -1.2
CCOC(=O)c1cc(-c2ccccc2)n(CCC(=O)NC2CCCC(C)C2C)c1C (configuration not stated) | 0.71 | -3.1
Cc1nnc(Sc2cc(C(=O)NC3CC3)c3ccccc3n2)s1 | 1.1 | 2.1
COc1ccc(CN2C(=O)N(c3ccc(F)cc3)C(=O)C2CC(=O)Nc2ccc(F)cc2)cc1 (configuration not stated) | 0.92 | -0.33
CCOCCCNC(=O)C1CC(=O)N(CCc2ccc(C)cc2)C1 (configuration not stated) | 1 | 0.073
O=C(CC1Oc2ccccc2NC1=O)NCCN1CCCC1 (configuration not stated) | 1 | 0.56
O=S(=O)(Nc1nc2ccccc2nc1NCCc1ccccc1)c1ccc(Cl)cc1 | 0.78 | -2.5
COc1ccc(-n2ncc3c(NCc4cccnc4)ncnc32)cc1 | 0.94 | -0.23
CCOC(=O)c1cc(-c2ccccc2)sc1NC(=O)c1ccncc1 | 1.4 | 2.3
CSc1ccc(OC2CCCCC2NS(=O)(=O)c2ccccc2)cc1 (configuration not stated) | 0.96 | -1.2
Cc1ccc(C(=O)Nc2ccc(NC(=O)c3ccccc3)cc2)cc1S(=O)(=O)N1CCCCC1 | 1.4 | 3
CCC(=O)N1c2ccc(S(=O)(=O)N3CCCCC3)cc2CC1C (configuration not stated) | 0.97 | -0.12
COc1ccc(-n2c(C)nc3c(cnn3-c3ccccc3)c2=O)cc1 | 1 | 0.45
O=S(=O)(c1ccc(-c2csc(Nc3ccc(Cl)cc3)n2)cc1)N1CCCC1 | 0.89 | -1.7
CCCCc1c(O)nc(SCCN(C)C)n(-c2ccccc2)c1=O | 0.99 | -0.51
CCc1ccc(NC(=O)C2CCCN(C(=O)c3cnn(-c4ccccc4)c3-n3cccc3)C2)cc1 (configuration not stated) | 0.94 | -3
COc1ccc(-c2c(C)nn3c(NC4CC4)cc(C)nc23)cc1OC | 0.92 | -2
CCC1CCCCN1C(=O)CS(=O)(=O)Cc1nc(-c2ccc(C)cc2)oc1C (configuration not stated) | 0.86 | -0.29
CCOC(=O)c1c(C)n(C)c2ccc(OCC(O)CNC3CCCCC3C)cc12 (configuration not stated) | 1 | 0.3
